S100A4 inh HTS: inhibitors of human S100A4 binding to myosin IIA peptide; S100A4/TAMRA-MyoIIA peptide fluorescence polarization; inhibition, % at 10.7 µM; 360,000 compounds, 0.14% hits; AID 652163;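 active = mean inhibition of at least 70% across replicates, with every replicate also reaching that level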
Target sequence (P26447 whole entry, looked up): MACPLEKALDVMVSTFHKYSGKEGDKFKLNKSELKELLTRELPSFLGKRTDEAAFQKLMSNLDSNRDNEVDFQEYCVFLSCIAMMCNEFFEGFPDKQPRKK
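Test system: S100A4 monomer protein. Medium: HEPES buffer with Ca2+, pH 7.2. Reagent: fluorescent myosin IIA peptide, 5 nM. Compound dosing: single-point compound testing. Timing: 5 min between mix addition and reading. Benchmarks: DMSO neutral and TFP positive wells.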
ERAP1 inh: ERAP1 (human) enzyme inhibition; inhibition, % at 10.7 µM; Q9NZ08; 340,000 compounds, 0.15% hits; recombinant ERAP1, Leu-AMC fluorescence, 60 min;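 active = mean replicate inhibition of at least 30%, or all replicates individually reaching that 30% level; inactive = mean below 30% and not every replicate reaching it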;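 note: 0% = neutral control wells and 100% = L-leucinethiol positive control wells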
Numbers without * were called inactive.

canonical_smiles | S100A4 inh HTS | ERAP1 inh
CCCC(=O)c1ccc(O)cc1O | -3.0 | 2.7
N#Cc1ccc(OCC(O)CN2CCC(C(O)(c3ccccc3)c3ccccc3)CC2)cc1 (stereo not drawn) | 1.4 | 1.2
CC(=O)N1CCN(C(c2ccccc2)c2ccccc2)CC1 | -0.8 | -2.2
COc1ccc(-c2nc(-c3ccccc3)no2)c(OC)c1 | 8.7 | 1.1
N#Cc1c(-c2ccc(Cl)cc2)c(-c2ccc(Cl)cc2)nn(CCO)c1=O | -5.9 | 1.3
C=C(CN(C)C)C(=O)c1cc(OC)c(OC)cc1OC | 3.8 | 1.6
O=c1[nH]cnc2c1ncn2C1CCC(CO)O1 (stereo not drawn) | -0.3 | 6.2
Cn1c(=O)n(C)c2cc(N3CCCCC3)c(NC(=O)c3ccccc3)cc21 | -10.1 | -0.7
O=C(O)c1cc(S(=O)(=O)N2CC=C(c3ccccc3)CC2)ccc1O | -3.0 | 0.5
O=S(=O)(c1ccc(F)cc1)n1cnc2ccccc21 | -15.2 | 3.3

Compound profiles, as listed above. Screens in order: S100A4 inh HTS, ERAP1 inh
Cn1c(=O)n(C)c2cc(N3CCCCC3)c(NC(=O)c3ccccc3)cc21 across the screens: -10.1, -0.7
O=c1[nH]cnc2c1ncn2C1CCC(CO)O1 (stereo not drawn) across the screens: -0.3, 6.2

Reprinted at random: 2 compounds from above, in no set order.
canonical_smiles | S100A4 inh HTS | ERAP1 inh
COc1ccc(-c2nc(-c3ccccc3)no2)c(OC)c1 | 8.7 | 1.1
O=S(=O)(c1ccc(F)cc1)n1cnc2ccccc21 | -15.2 | 3.3

Screens (PubChem BioAssay)

The list is partial, and most or all hits are left out here.
